# KCNQ2 pot = KCNQ2 (rat) channel potentiation | B-score at 10 µM | AID 2239 | CHO-K1 KCNQ2, FluxOR thallium flux fluorescence; stronger effect = higher value | 0.54% of 310,000 active;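 active = fluorescence ratio B-score at least 3 SD of library B-scores, with initial fluorescence B-score within 3 SD, cut at about 5.3 in these data; same plate scores as AID 2156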;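 note: B-score of peak minus minimum over baseline fluorescence ratio after K+ and Tl+ stimulus; positive B-score means potentiation of KCNQ2 with more thallium influx and brighter signal; only the inactives scoring about 0 or higher are listed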
# Target sequence (O88943 whole entry, looked up): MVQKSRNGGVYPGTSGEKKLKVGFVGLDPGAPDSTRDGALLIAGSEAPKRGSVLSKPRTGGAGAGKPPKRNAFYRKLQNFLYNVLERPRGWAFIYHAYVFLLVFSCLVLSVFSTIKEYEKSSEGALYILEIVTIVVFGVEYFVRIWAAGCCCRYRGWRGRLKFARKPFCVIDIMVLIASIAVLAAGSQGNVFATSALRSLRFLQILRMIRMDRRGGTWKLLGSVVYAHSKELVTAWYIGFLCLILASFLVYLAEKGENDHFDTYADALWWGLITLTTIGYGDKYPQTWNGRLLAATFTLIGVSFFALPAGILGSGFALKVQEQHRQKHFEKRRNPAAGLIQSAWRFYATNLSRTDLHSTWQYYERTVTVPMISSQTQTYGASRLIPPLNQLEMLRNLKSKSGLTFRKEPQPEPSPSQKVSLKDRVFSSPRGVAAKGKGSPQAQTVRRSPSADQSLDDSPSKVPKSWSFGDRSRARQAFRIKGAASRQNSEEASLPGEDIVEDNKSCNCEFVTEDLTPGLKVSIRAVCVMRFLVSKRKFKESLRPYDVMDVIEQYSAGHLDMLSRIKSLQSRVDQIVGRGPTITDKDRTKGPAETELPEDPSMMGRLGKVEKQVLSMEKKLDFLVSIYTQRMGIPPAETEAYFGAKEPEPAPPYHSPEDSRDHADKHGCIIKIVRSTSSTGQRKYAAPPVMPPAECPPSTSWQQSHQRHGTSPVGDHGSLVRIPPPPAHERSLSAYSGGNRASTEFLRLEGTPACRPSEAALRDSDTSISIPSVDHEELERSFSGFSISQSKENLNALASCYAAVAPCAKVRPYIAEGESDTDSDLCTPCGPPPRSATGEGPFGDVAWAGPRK
# KCNQ2 pot baseline = second read-out of KCNQ2 pot, no call of its own (marks repeat the call); B-score; compound at 10 µM; measured here: initial fluorescence intensity artifact check;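 brightness before thallium and not channel activity; 0 = typical well and far values either way flag optical interference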
# Numbers without * were called inactive. A portion of the library; the hit share may differ from the screen's.
mol,KCNQ2 pot,KCNQ2 pot baseline
CC(NS(=O)(=O)c1ccccc1)C(=O)Nc1ccc(S(N)(=O)=O)cc1 (stereo not given),0.35,-0.51
CC(=O)c1c[nH]c(C(=O)NCC2CCCO2)c1 (stereo not given),1.02,-0.08
CC(=O)Nc1cccc(NC(=O)CSc2ccc(-c3cccnc3)nn2)c1,0.8,-0.02
Cc1ccc(NC(=O)Cn2nc(-c3ccccc3)nc2-c2ccccc2)c(C)c1,0.09,-1.19
CC(C)NC(=O)C(C)N1CCN(S(=O)(=O)c2ccc3ccccc3c2)CC1 (stereo not given),0.03,-0.22
COC(=O)c1c(C)[nH]c(C(=O)CC#N)c1C,0.18,1.93
COc1ccccc1CCC(=O)OCC(=O)NC1CCCCC1,0.3,-1.09
CCCCn1nc2cc(C(=O)NC3CCc4ccccc43)ccc2c1OCC (stereo not given),0.03,-3.67
Cc1ccc(S(=O)(=O)c2nc(N3CCOCC3)sc2Cl)cc1,0.31,-2.12
COC(=O)c1ccc(/C=C2\N=C(SC)SC2=O)cc1,1.03,0.45
Cc1cccc(C(=O)Nc2ccc(C(=O)N/N=C/c3ccco3)cc2)c1,2.89,-1.98
CC(C)n1cc(/C=N/NC(=O)COc2cccc3cccnc23)c2ccccc21,1.75,2.16
COc1ccc(CC(=O)N/N=C/c2cc([N+](=O)[O-])cc(Br)c2O)cc1,3.48,0.01
Cc1ccc(OCC(=O)Nc2ccc(N3CCN(C(=O)c4ccco4)CC3)cc2)cc1,0.56,0.2
COC(=O)Nc1ccc(S(=O)(=O)N2CCCCC2)cc1,1.1,-2.31
Cc1cc(C(=O)NNC(=O)c2c(-c3c(Cl)cccc3Cl)noc2C)no1,1.97,-0.03
Cc1cc(C)c(C(=O)Cn2nc(C)c([N+](=O)[O-])c2C)cc1C,2.05,-0.61
Cc1ccc(C(=O)OCC(=O)NCC(F)(F)F)cc1C,0.7,1.3
c1ccc(Oc2ccc(-c3ccn[nH]3)cc2)cc1,0.86,-1.95
O=C(Nc1cccc(C(=O)Nc2cccc(Br)c2)c1)c1ccccc1,1.3,0.31
O=C(O)c1cc(N=Nc2c(O)[nH]c3ccc([N+](=O)[O-])cc23)ccc1Cl,0.26,2.31
CCc1nnc(NC(=O)CSc2nc(C3CCCCC3)nc3ccccc23)s1,1.47,-1.82
O=[N+]([O-])c1ccc(-n2nncc2-c2ccccc2)cc1,1.16,-0.53
COC(=O)c1ccc(CSc2nnc(N)s2)o1,0.97,-1.02
CCN=C1SC(C(=O)Nc2cc(Cl)cc(Cl)c2)CC(=O)N1CC (stereo not given),0.41,0.99
O=C(Nc1ccc(S(=O)(=O)N2CCCc3ccccc32)cc1)C1CCCO1 (stereo not given),0.1,-1.59
Cc1cc(NC(=O)CN2C(=O)NC(CCc3ccccc3)C2=O)no1 (stereo not given),0.68,0.02
CC1Cc2cc(/C(O)=C3/C(=O)C(=O)N(CCN4CCOCC4)C3c3ccc(N(C)C)cc3)ccc2O1 (stereo not given),0.56,0.79
c1ccn2cc(-c3ccc4c(c3)OCCO4)nc2c1,0.36,-0.13
COc1ccccc1-c1nnc(NC(=O)c2ccccc2F)o1,0.39,1.04
CC[n+]1oc(-c2ccccc2)cc1C,0.35,1.39
CCNC(=O)CN(c1ccccc1)S(=O)(=O)c1ccc(Cl)cc1,0.25,0.71
CC(C)Cn1c(=S)[nH]c2cc(Cl)ccc21,2.85,-1.48
CCn1c(CNC(=O)c2cccc(C)c2)nnc1SCC(=O)NC1CCCCC1C (stereo not given),0.32,-0.72
COC(=O)c1cc(Br)c(=O)n(CCc2ccccc2)c1,0.8,1.1
CCC(C)N(C(=O)c1csnn1)C(C(=O)NC(C)(C)C)c1ccccc1 (stereo not given),0.56,-0.73
COc1ccc(OCc2cc(C(=O)NC3Cc4ccccc4C3)no2)c(Cl)c1,0.63,-0.55
c1ccc(N2CCN(Cc3ccc4c(c3)OCO4)CC2)nc1,0.81,-1.34
Cc1cccc(NC(=O)CN(C)S(=O)(=O)c2ccc3c(c2)n(C)c(=O)c(=O)n3C)c1C,1.31,0.65
CCOC(=O)c1cc(C(=O)n2cc(Cl)cn2)nn1C,0.2,0.61
OCC[C@H]1C[C@@H](O)[C@H](O)[C@]2(CCCCO2)O1,0.15,-0.12
Cc1nnc(SCC(=O)Nc2ccc(Br)cc2)n(N)c1=O,1.43,-1.71
CCCOc1cccc(-c2cc(C(=O)N/N=C/c3ccccn3)c3ccccc3n2)c1,5.5*,0.27*
COc1ccc(-n2nc(C(=O)NCC(=O)O)c3ccccc3c2=O)cc1,0.02,-0.9
CC(C)OC(=O)c1nnn(-c2nonc2N)c1CN1CCCCCC1,0.26,-1.47
COc1cccc2cc(C(=O)N3CCN(C(=O)c4ccccc4)CC3)c(=O)oc12,1.13,0.1
COc1ccc(NC(=O)C2(c3ccccc3)CCCC2)cc1,1.08,0.52
CC1(C)CC(NC(=O)Cc2ccc(Cl)cc2)CC(C)(C)N1,0.45,0.02
NCCCC[C@H]1CNC(=S)N1CC1(c2ccccc2)CC1,2.12,0.96
CCOC(=O)C1(C/C(C)=N/NC(N)=O)CC(C)(C)OC1=O (stereo not given),2.84,-0.27
Cc1nn(C)c(C(=O)NC(=S)Nc2ccc([N+](=O)[O-])cc2)c1Cl,8.44*,-0.32*
CCC(C(=O)N/N=C(\C)c1cccnc1)c1ccccc1 (stereo not given),0.44,0.53
CCCCNC(=O)c1sc2nc(C)cc(COC)c2c1-n1cccc1,1.93,-0.66
COC(=O)c1ccc(/C=N/NC(=O)CC(=O)NCc2cccnc2)cc1,1.34,-2.76
COC(=O)c1cc(C(=O)OC)n(Cc2ccc(F)cc2)n1,0.74,0.33
Cc1[nH]nc2c1-c1nc3ccccc3nc1C(C)(C)C2,1.74,1.74

# Pulled by structure from above:
mol,KCNQ2 pot,KCNQ2 pot baseline
CCCCNC(=O)c1sc2nc(C)cc(COC)c2c1-n1cccc1,1.93,-0.66
COC(=O)c1ccc(/C=N/NC(=O)CC(=O)NCc2cccnc2)cc1,1.34,-2.76
CCC(C(=O)N/N=C(\C)c1cccnc1)c1ccccc1 (stereo not given),0.44,0.53
Cc1[nH]nc2c1-c1nc3ccccc3nc1C(C)(C)C2,1.74,1.74
COC(=O)c1cc(C(=O)OC)n(Cc2ccc(F)cc2)n1,0.74,0.33
NCCCC[C@H]1CNC(=S)N1CC1(c2ccccc2)CC1,2.12,0.96

# Additional entries.
mol,KCNQ2 pot,KCNQ2 pot baseline
COc1ccccc1-c1ccc(/C=C2/C=C(C)OC2=O)o1,0.24,-0.03
O=C1CC(c2ccc(O)cc2)Oc2cc(O)cc(O)c21 (stereo not given),1.19,0.03
Cc1ccc(N2C(=O)C3C(C(=O)c4ccccc4)=NN(c4ccccc4)C3C2=O)cc1 (stereo not given),1.71,-2.45
CN(C(=O)c1ccco1)c1nc2c(s1)CCCC2,0.34,-0.86
Cc1ccc(NC(=O)CSc2nnc(CCNC(=O)OC(C)(C)C)o2)c(C)c1,0.03,-1.72
CCN(CC)c1ccc(NC(=O)CSc2n[nH]c(-c3ccco3)n2)cc1,2.37,0.13
COc1ccc(NC(=O)C2CCCN(S(=O)(=O)c3c(C)[nH]c(=O)[nH]c3=O)C2)cc1Cl (stereo not given),0.15,-0.15
CCCC(=O)Nc1nc(-c2ccccc2)ns1,0.8,-0.59

# Further compounds
# Each structure is followed by: KCNQ2 pot | KCNQ2 pot baseline
O=C(NCc1ccccc1)c1onc(CSc2ccncc2)c1C(=O)NCc1ccccc1
  0.6 | 0.45
COc1ccccc1NC(=O)c1cnc(SCC(=O)NCC2CCCO2)n(C)c1=O (stereo not given)
  0.64 | -0.84
CSc1ccccc1Nc1ncnc(N)n1
  0.23 | -1.07
COc1cccc(NC(=O)Nc2cccn(Cc3ccccc3)c2=O)c1
  0.72 | 0.47
CCS(=O)(=O)CCSc1nc2ccccc2s1
  0.08 | 1.72
c1cc(-c2nnc3n2CCCCC3)ccn1
  0.51 | -1.54
FC(F)(F)c1ccc(Cl)c(-n2c(-c3ccco3)n[nH]c2=S)c1
  0.55 | -0.5
Cc1ccc(OCC(=O)NNC(=O)Cc2ccc(S(=O)(=O)N3CCOCC3)s2)cc1
  0.05 | 0.6
CCOC(=O)[C@@H]1[C@H]2COc3ccccc3[C@@H]2N2C(=O)N(c3cccc(F)c3)C(=O)[C@]12C
  0.05 | 0.15
COc1ccc(NC(=O)NC2CC3CCCC(C2)N3Cc2ccccc2)cc1 (stereo not given)
  0.58 | -0.5
CC(=O)c1ccc2c(c1)N(C)c1ccccc1S2
  0.12 | 1.26
CCOC(=O)/C=C1\CN(Cc2cc(OC)c(OC)c(OC)c2)S(=O)(=O)c2ccccc21
  0.07 | -0.57
COCCn1c(-c2cccc(Br)c2)nc2c(c(=O)c3ccccc3n2C)c1=O
  0.05 | 0
COc1ccc(Nc2nc(N)nc(CSC(=S)N3CCCCC3)n2)cc1
  1.36 | -0.09
NC(=O)c1c(NC(NC(=O)c2ccco2)(C(F)(F)F)C(F)(F)F)sc2c1CCCC2
  0.38 | 0.02
Cc1noc(C)c1COC(=O)c1ccccc1Sc1ccccc1C#N
  0.12 | 0.27
CC(C)CC(=O)Nc1ccc(C(=O)NN2C(=O)c3ccccc3C2=O)cc1
  0.54 | -1.22
CCCC/C=C1\CCc2c([nH]c3ccccc23)C1=O
  1.1 | -0.76
CN(C(=O)CSc1nnc(-c2c[nH]c3ccccc23)o1)C1CCS(=O)(=O)C1 (stereo not given)
  2.52 | 0.1
CS(=O)(=O)N1CCN(c2nc(-c3ccc(F)cc3)cs2)CC1
  1.71 | -1.89
CCN1C(=O)[C@H]2[C@@H](c3ccc(C)cc3)N3C(=O)N(c4ccc(C)cc4)C(=O)[C@@]3(Cc3ccccc3)[C@H]2C1=O
  1.42 | -2.35
COc1ccc2nc(NC(C)=O)sc2c1
  0.92 | -0.14
CCOc1cc(/C=C2/SC(=O)N(CC(=O)N3CCc4ccccc4C3)C2=O)ccc1OCC(=O)O
  0.83 | 0.12
Cc1ccccc1N=C1Nc2ccccc2CS1
  0.37 | -0.53
COc1ccc(S(=O)(=O)N2CCC(C(=O)NCc3cccnc3)CC2)cc1C
  0.66 | -3
O=C(Nc1cccnc1)c1ccc(Cl)c(S(=O)(=O)N2CCCC2)c1
  0.55 | -2.42
O=c1cc(N2CCOCC2)cnn1-c1ccccc1
  0.52 | -1.4
C/C(=N\NC(=O)c1cccs1)c1cccnc1
  0.42 | 0.07
COC(=O)c1c(C)[nH]c(C(=O)OCC(=O)NC(C)(C)C)c1C
  0.27 | 1.21
CCCCNC(=S)NNC(=O)CCn1nc(C)c(Br)c1C
  0.09 | -2.06

# Full records as entered above. Order of values: KCNQ2 pot | KCNQ2 pot baseline
# Record of C/C(=N\NC(=O)c1cccs1)c1cccnc1 : 0.42 | 0.07
# Record of O=C(Nc1cccnc1)c1ccc(Cl)c(S(=O)(=O)N2CCCC2)c1 : 0.55 | -2.42
# Record of Cc1ccccc1N=C1Nc2ccccc2CS1 : 0.37 | -0.53

# Remaining list, next part:
# Each structure is followed by: KCNQ2 pot | KCNQ2 pot baseline
O=C1NC(=O)c2c(NC(=O)C3CCCO3)cccc21 (stereo not given)
  1.35 | -0.02
Oc1cccc(NC(=S)N=Nc2c(O)[nH]c3ccccc23)c1
  0.32 | -2.07
CC(=O)Nc1ccc(S(=O)(=O)NCCc2ccccc2)cc1
  2.01 | 0.74
O=C(Nc1ccc(Cl)cn1)C1CCCN1S(=O)(=O)c1ccc(Cl)cc1 (stereo not given)
  0.71 | -0.2
COc1cc2cc(C(=O)Nc3ccc4c(c3)OCCO4)[nH]c2cc1OC
  0.56 | 1.3
COc1ccc(N(CC(=O)Nc2ccc(OC)cc2OC)S(=O)(=O)c2ccccc2)cc1
  1.32 | -3.56
CCCCn1c(N)c(N(CCC(C)C)C(=O)c2cccc(S(=O)(=O)N3CCN(C)CC3)c2)c(=O)[nH]c1=O
  1.8 | -1.07
Cc1ccc(C(=O)NNC(=O)CSc2nnc(-c3ccncc3)n2C)cc1
  0.44 | -0.75
CCOC(=O)c1c(NC(=O)C2C3C=CC(CC3)C2C(=O)O)sc(C)c1C (stereo not given)
  0.59 | 0.55
CC(C)CNC(=S)NC1CCCC1
  0.42 | -0.24
Cc1cc(N2CCN(C(=O)OC(C)(C)C)CC2)n2ncnc2n1
  0.1 | -1.98
O=C(CSc1nc(-c2ccccc2)c(-c2ccccc2)[nH]1)Nc1nccs1
  1.32 | 1.31
COc1ccc(CNC(=O)c2cncc(Br)c2)cc1
  0.34 | -1.29
CC(NC(=O)NC1CCCCC1)c1ccc2c(c1)OCO2 (stereo not given)
  20.9* | 0.89*
CCOC(=O)CC1NC(=O)c2ccccc21 (stereo not given)
  1.23 | 0.56
COc1ccccc1OCC(=O)Nc1ccccn1
  1.63 | 0.02
CCC(C)CCCCCCCCCCC(=O)O (stereo not given)
  4.99 | -0.14
CN(C)c1nc(NCc2ccccc2)nc(SCC(=O)Nc2ccccc2)n1
  0.48 | 0.77
N/C(=N\OC(=O)Cc1ccccc1[N+](=O)[O-])c1ccccn1
  0.54 | -0.57
Cc1ccccc1NC(=O)/C(C#N)=C\c1cc(C)n(-c2ccc(C(=O)O)cc2)c1C
  3.38 | -0.54
Oc1ccc(-c2csc(Nc3ccccn3)n2)c(O)c1
  1.76 | -0.23
Cc1ccc(C(=O)Nc2cnc3sc(C)nn3c2=O)cc1
  2.62 | 0.33
CCOC(=O)C(C)Oc1ccc(C2NC(=O)NC(C)=C2C(=O)Nc2ccccc2C)cc1 (stereo not given)
  0.82 | -0.01
O=C1[C@H]2[C@H]3[C@H](O)[C@H](O)C/C(=N\OC[C@@H](O)COCc4ccco4)[C@@H]3CC[C@H]2C(=O)N1c1ccc(F)cc1F
  0.74 | 1.61
Cc1ccc(C(=O)N/C(=C\c2ccc(F)cc2)C(=O)NCc2ccncc2)cc1
  0.22 | 0.05

# Screening results from PubChem BioAssay.
